From PubChem BioAssay
CSC inhib – cancer stem cell inhibition. cancer stem cell-like cells viability, luminescence. inhibition, % at 7.5 µM. 300,000 tested, 1.1% active. AID 2717;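 active means mean at 75% or more and at least half the replicates too; tested in HMLE shEcad cells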;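 further: 0% = median of negative and 100% = median of positive control wells; the first replicate is given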
MT1-MMP act inh – inhibitors of human MT1-MMP activation; P50281; HT1080 RFP-PRO-GFP cells, GFP/RFP ratio fluorescence, overnight; percent of plate control window, DMSO zero; GFP/RFP ratio change, % at 20 µM; 360,000 tested, 0.061% active;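 active means GFP/RFP ratio change of at least 30% with cell ATP level not reduced by more than half and red fluorescence within 50% of control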; further: strong numbers were not always called active
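Read-out: GFP/RFP fluorescence ratio; Test system: RFP-PRO-GFP reporter HT1080 cells; Compound dosing: single-point 20 µM compound, 1% DMSO; Times: overnight compound exposure at 37 °C.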
HIV Env fusion – HIV envelope-mediated fusion inhibition | HeLa-JRFL Env/CEM21 cell fusion, luciferase | inhibition, % at 12.3 µM | 360,000 tested, 1.1% active | AID 651610;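 active means mean replicate inhibition score of at least 50 and every replicate individually at or above 50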;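 further: 0% = plate neutral controls and 100% = maraviroc near 300 nM; one replicate is shown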
Rce1 inhib – inhibitors of yeast Ras-converting enzyme; calls only; 290,000 tested, 0.27% active; yeast membranes, quenched prenylated peptide cleavage fluorescence; Q03530;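 active means fall in fluorescence gain of 50% or more versus controls, with final raw signal at or below 3038400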;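 further: plate controls were neutral control wells for no effect and wells lacking membranes for full effect; tested at 10 µM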
Target sequence (Q03530 whole entry, looked up): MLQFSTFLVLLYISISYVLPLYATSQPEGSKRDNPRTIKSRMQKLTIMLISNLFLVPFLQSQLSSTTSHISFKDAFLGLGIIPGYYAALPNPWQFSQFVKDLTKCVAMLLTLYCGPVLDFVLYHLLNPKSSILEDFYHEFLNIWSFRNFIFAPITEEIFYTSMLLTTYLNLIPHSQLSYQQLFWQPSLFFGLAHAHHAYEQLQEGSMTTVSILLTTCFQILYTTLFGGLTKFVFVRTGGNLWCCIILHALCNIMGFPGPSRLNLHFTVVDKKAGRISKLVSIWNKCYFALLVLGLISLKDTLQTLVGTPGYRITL
UUG fidelity – alters start codon recognition fidelity in yeast | S. cerevisiae UUG-firefly luciferase reporter, luminescence/redox ratio | activity score, % at 18.7 µM | 350,000 tested, 0.13% active | AID 602363;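 active means replicate mean at a twofold rise or more, about +100% in these data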;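 further: firefly luciferase made from a UUG start codon reports start codon fidelity; reporter light over untreated wells divided by growth signal over untreated wells; some hits fall short of that in this replicate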
PABP FP inh – blocks human PABP binding to poly(A) RNA | inhibition, % at 35 µM | 290,000 tested, 1% active | P11940 | fluorescence polarization;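 active means 50% or more with normal probe brightness, or confirmed in later tests; about a fifth of its hits are not listed in these tables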;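 further: calls also rest on retests at 20 µM and on dose response follow-up; controls were probe without protein and protein plus probe with vehicle; some compounds called inactive have numbers as strong as hits; many hits fall short of the cut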
Target sequence (P11940 whole entry, looked up): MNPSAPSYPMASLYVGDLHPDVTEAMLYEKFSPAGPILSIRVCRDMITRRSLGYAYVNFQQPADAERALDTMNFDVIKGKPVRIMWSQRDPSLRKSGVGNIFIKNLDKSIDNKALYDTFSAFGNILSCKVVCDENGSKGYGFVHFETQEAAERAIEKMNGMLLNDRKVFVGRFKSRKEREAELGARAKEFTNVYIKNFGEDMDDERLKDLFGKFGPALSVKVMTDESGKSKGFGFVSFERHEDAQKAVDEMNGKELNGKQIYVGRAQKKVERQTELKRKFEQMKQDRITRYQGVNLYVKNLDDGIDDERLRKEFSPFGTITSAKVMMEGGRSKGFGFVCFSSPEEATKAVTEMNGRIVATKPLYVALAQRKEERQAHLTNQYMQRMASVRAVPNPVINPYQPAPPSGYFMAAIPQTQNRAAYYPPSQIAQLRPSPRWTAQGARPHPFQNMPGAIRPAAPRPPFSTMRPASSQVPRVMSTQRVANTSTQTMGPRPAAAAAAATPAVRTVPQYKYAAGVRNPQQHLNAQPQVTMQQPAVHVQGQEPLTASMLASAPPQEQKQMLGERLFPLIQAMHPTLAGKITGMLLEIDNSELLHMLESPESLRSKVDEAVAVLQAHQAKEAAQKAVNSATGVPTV
eIF4H FP inh – inhibitors of RNA binding by human eIF4H; Q15056; eIF4H fluorescence polarization binding assay; inhibition, % at 35 µM; 290,000 tested, 0.94% active;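 active means 50% or more with normal probe brightness, or confirmed in later tests; about a fifth of its hits are not listed in these tables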;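 further: calls also rest on retests at 20 µM and on dose response follow-up; 0% = protein and probe with vehicle and 100% = probe without protein; strong numbers were not always called active; many hits fall short of the cut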
MT1-MMP act inh RFP – second read-out of MT1-MMP act inh, no call of its own (marks repeat the call); RFP signal change, %; measured here: RFP expression control read;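 0 = vehicle wells; hits needed this value within 50% of zero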
* marks the source's active call; other numbers are inactive results; i = inactive; · = no result given; + = active, no number.

nr	mol	PABP FP inh	UUG fidelity	CSC inhib	eIF4H FP inh	MT1-MMP act inh RFP	Rce1 inhib	MT1-MMP act inh	HIV Env fusion
1	COc1ccccc1-c1cnc(C(O)c2ccc(SC)cc2)[nH]1 (stereo not drawn)	·	-17.9	·	·	-4.0	·	0.5	-2.3
2	O=c1oc2ccc(Cl)cc2nc1/C=C(\O)c1cccs1	20.2	·	29.1	2.8	-7.3	i	2.7	3.9
3	OCC1(CCCc2ccccc2)CCN(Cc2cc(F)ccc2F)CC1	-2.3	-10.1	21.1	4.2	5.7	i	1.6	-4.1
4	O=S(=O)(c1ccc2c(c1)OCCO2)N1CCN(c2nc3ccccc3s2)CC1	-1.7	-9.8	2.8	18.9	-6.8	i	1.0	·
5	COc1cc(CNCc2cccnc2)ccc1OCc1ccccc1	-2.9	-18.9	11.4	6.8	0.0	i	0.2	-11.3
6	O=C(Nc1c(C(=O)Nc2cccc3ccccc23)cnn1-c1ccccc1)c1ccco1	3.3	-1.6	-4.2	2.4	-0.7	i	1.5	·
7	O=C1CCCC/C1=C\Nc1ccccc1C(=O)O	4.5	-11.5	-1.5	-5.4	6.3	i	-6.7	-13.8
8	CCOC(=O)C(C)Sc1nnc2c3ccccc3n(C)c2n1 (stereo not drawn)	7.4	-18.3	-12.7	-7.5	-0.7	i	-1.8	-9.7
9	COc1ccc(S(=O)(=O)NNC(=O)c2sccc2-n2cccc2)cc1	10.1	-13.4	-9.7	3.0	3.1	i	8.1	4.3
10	Cc1ccc(C)c(OCCC(=O)Nc2ccc3c(c2)OCO3)c1	·	0.6	·	·	0.1	·	2.1	-2.2
11	O=C(OC(C(=O)NCc1cccs1)c1ccccn1)c1cccs1 (stereo not drawn)	-6.0	-16.8	2.5	-2.4	5.1	i	5.6	-7.5
12	CCc1nc2c(OCC(=O)N3CCOCC3)cccn2c1N(C=O)Cc1ccccc1	·	-2.2	·	·	3.7	·	-1.0	10.0
13	CC(C)(C)NC(=O)C(=O)NNC(=O)c1ccccc1Br	-0.6	·	-20.4	2.7	2.6	i	-0.6	-14.5
14	CCC1CCC/C1=N\NC(=O)c1cc(C)[nH]n1 (stereo not drawn)	-10.4	-5.8	-9.6	-6.4	2.0	i	9.8	23.7
15	Cc1ccc(S(=O)(=O)Nc2ccc(SC(F)F)cc2)c(C)c1	2.3	·	33.3	0.2	-9.1	i	1.6	·
16	CCN(C[C@H]1N[C@@](CC)(C(=O)OC)[C@H]2C(=O)N(C)C(=O)[C@@H]12)S(=O)(=O)c1ccc(C)cc1	·	-4.1	-9.3	·	6.2	·	2.6	·
17	Cc1ccc(S(=O)(=O)N(CC(=O)Nc2cccnc2)c2cccc([N+](=O)[O-])c2)cc1	9.7	-18.4	22.7	-16.6	-6.9	i	-5.0	39.0
18	N#Cc1ccccc1/C=N/Nc1nc(-c2ccccc2)c2cc(Cl)ccc2n1	3.0	-24.7	·	5.6	-1.8	i	-1.1	-171.6
19	COc1cc(OC)cc(C(=O)OCC(=O)N(C)c2ccccc2)c1	1.4	-10.3	-8.2	0.9	0.3	i	-1.0	-2.5
20	O=[N+]([O-])c1cc(C(F)(F)F)ccc1NCCCN1CCOCC1	-3.3	·	-8.3	-3.7	1.1	i	0.7	-3.6
21	C/C(=N\NC(=O)COc1ccc(C)cc1C(C)C)c1ccc(-n2ccnc2)cc1	2.7	-23.4	32.1	-9.6	-0.5	i	9.3	-107.9
22	C=CCNC(=O)c1onc(CSc2cc(C)cc(C)c2)c1C(=O)NCC=C	1.7	-0.2	10.2	-3.7	-2.5	i	-4.1	23.2
23	C/C(Cn1cnc([N+](=O)[O-])n1)=N/NC(=O)COc1ccccc1Cl	-16.5	·	-10.0	-19.3	6.7	i	4.7	-13.1
24	CCSc1nnc(NC(=O)C2CC(=O)N(Cc3ccc(C)cc3)C2)s1 (stereo not drawn)	-10.8	-10.5	-1.5	-1.2	-0.2	i	3.3	-5.0
25	COc1ccc(CN2CCCC(C(=O)N(C)Cc3ccccc3)C2)cc1OC (stereo not drawn)	-1.1	2.2	-3.5	1.3	2.5	i	1.2	·
26	Cc1cccc(N=C2NC(=O)/C(=C/c3cccn3C)S2)c1	16.0	·	-8.4	11.0	0.7	i	-1.3	-4.1
27	O=C(CSc1ccccc1C(=O)N1CCN(c2ccccc2)CC1)N1CCCC1	·	5.9	·	·	1.8	·	0.1	-0.5
28	CCCC1(CC)C(=O)NC(=O)N=C1N (stereo not drawn)	·	-21.9	·	·	4.7	·	0.9	-2.5
29	C/C=C/c1ccc(OCC(O)CNCC(c2ccc(OC)cc2)N(C)C)c(OC)c1 (stereo not drawn)	3.8	8.7	6.0	3.3	1.8	i	2.0	3.0
30	COc1ccc(S(=O)(=O)N2CCCCC2)cc1NS(=O)(=O)c1ccccc1	·	-1.5	0.9	·	-2.7	·	-4.9	-13.8
31	Cc1cccc(NC(=O)CSCC(=O)N=c2sccn2C)c1	·	-11.2	-15.0	·	-1.1	i	6.8	-284.1
32	CC(=O)c1c(C)oc2ccc(NS(=O)(=O)c3ccc(O)c(C(=O)O)c3)cc12	10.4	-5.9	-9.5	-6.6	1.2	i	4.0	·
33	O=C([C@H](O)c1ccccc1)N1CCC[C@H]1CO	-0.1	·	-5.0	0.2	0.7	i	2.1	·
34	Nc1ccn(CC(=O)N[C@H](CO)Cc2c[nH]c3ccccc23)c(=O)n1	·	-6.3	-4.7	·	-1.8	·	-2.7	-20.8
35	Fc1cccc(/C=N/NC(=S)Nc2ccccc2Cl)c1	-6.2	·	1.1	0.6	-0.8	i	0.3	-78.1
36	NNC(=O)c1cc2ccccc2[nH]1	18.7	·	9.5	4.9	·	i	·	-3.4
37	CCCCn1c(N)c(N(C)C(=O)c2c(C)nn(-c3ccccc3)c2C)c(=O)[nH]c1=O	·	-16.8	-1.8	·	1.8	·	1.2	·
38	O=C(/C=C/c1ccc(Cl)cc1)N1CCOCC1	-4.9	-12.2	7.1	0.2	1.6	i	3.5	-17.3
39	COc1ccc(-c2cc(C(=O)Nc3ccc(Cl)cc3Cl)c3ccccc3n2)cc1OC	-1.0	·	-22.2	-2.2	4.0	i	-4.2	13.5
40	CSc1cccc(NC(=O)CSc2ccc(Cl)cc2)c1	-1.3	-17.0	-11.5	-1.6	-3.4	i	4.5	-15.5
41	COc1ccc(NC(=S)NC(=O)c2cncc(Br)c2)c(OC)c1	-9.8	-18.3	-6.6	3.6	-0.7	i	0.4	-10.4
42	CN(C)CCCN=Cc1c(O)n(Cc2ccccc2)c(=O)c2ccccc12	2.5	2.2	-1.1	8.0	-1.1	i	-4.9	·
43	CCN(C(=O)c1cccnc1)c1ccccc1	9.3	-14.2	6.4	4.0	4.7	i	-1.6	-6.0
44	COC(=O)c1ccc(NC(=O)C2CC2)o1	-7.2	-2.9	-3.0	-9.1	4.8	i	4.5	·
45	CCNc1nc(NC(C)(C)C)nc(N2CCCC2)n1	0.6	-17.8	·	-11.0	-1.2	i	-8.7	-14.3
46	COc1cccc(NC(=O)Nc2nnc(COCCO)s2)c1	·	-16.9	·	·	-3.3	·	-7.7	34.8
47	Cc1ccccc1-c1cccc(CN2CCN(C)C(CCO)C2)c1 (stereo not drawn)	1.7	-7.3	2.5	-5.7	1.1	i	-3.5	2.3
48	COCCn1c(SCC(=O)c2c[nH]c3ccccc23)nnc1-c1ccncc1	3.2	·	4.2	6.2	2.9	i	-1.0	·
49	COC(=O)c1sccc1NC(=O)c1ccccc1	8.1	·	-12.7	2.8	1.3	i	-3.1	12.2
50	COCCCN1C(=O)C(O)=C(C(=O)c2ccc(C)o2)C1c1cccc(Br)c1 (stereo not drawn)	15.1	23.1	-4.3	-14.1	3.4	i	7.4	-23.6
51	O=C1CCC(C(=O)N(CCO)Cc2ccccc2)CN1CC1CCCCC1 (stereo not drawn)	-16.0	26.4	-6.7	-4.3	2.0	i	-2.5	1.0
52	O=C(CN1C(=O)C2CCCCC2C1=O)N1CCN(c2ccc(F)cc2)CC1 (stereo not drawn)	8.6	·	5.9	3.5	-0.4	i	0.4	0.7
53	COC(=O)C(CC(C)C)NC(=O)c1cccs1 (stereo not drawn)	1.3	-3.7	-12.3	-15.7	1.5	i	3.1	2.0
54	CO/N=C/c1ccc(Sc2ccc(C)cc2)c([N+](=O)[O-])c1	-4.0	-10.9	-9.8	-4.5	-2.6	i	0.6	·
55	C=CCn1c(N2CCOCC2)nc2c1c(=O)[nH]c(=O)n2C	6.0	·	-3.8	-9.0	12.1	i	5.6	7.1
56	Cc1cccc2nc(CSc3nc4[nH]ncc4c(=O)n3-c3ccccc3Cl)cc(=O)n12	10.8	·	-3.8	12.5	-6.5	i	-14.2	·
57	O=C(COc1ccc2ccc(=O)oc2c1)NCCN1CCOCC1	·	0.0	·	·	8.9	·	2.9	-5.2
58	CCCC(=O)NC(c1ccc(OC)cc1)c1ccc2cccnc2c1O (stereo not drawn)	10.0	·	119.2*	9.1	-7.9	i	5.3	6.7
59	COc1cccc(CN(C)C(=O)COc2ccc(C(=O)c3ccc(Cl)cc3)cc2)c1OC	-1.5	-1.4	-9.0	-5.4	1.9	i	1.2	18.2
60	O=C(CN1C(=O)NC2(CCCC2)C1=O)OCc1ccc(F)cc1	·	·	·	·	2.5	i	1.0	-12.1

In the list so far, four have a nitro group on carbon:
nr	mol	PABP FP inh	UUG fidelity	CSC inhib	eIF4H FP inh	MT1-MMP act inh RFP	Rce1 inhib	MT1-MMP act inh	HIV Env fusion
17	Cc1ccc(S(=O)(=O)N(CC(=O)Nc2cccnc2)c2cccc([N+](=O)[O-])c2)cc1	9.7	-18.4	22.7	-16.6	-6.9	i	-5.0	39.0
20	O=[N+]([O-])c1cc(C(F)(F)F)ccc1NCCCN1CCOCC1	-3.3	·	-8.3	-3.7	1.1	i	0.7	-3.6
23	C/C(Cn1cnc([N+](=O)[O-])n1)=N/NC(=O)COc1ccccc1Cl	-16.5	·	-10.0	-19.3	6.7	i	4.7	-13.1
54	CO/N=C/c1ccc(Sc2ccc(C)cc2)c([N+](=O)[O-])c1	-4.0	-10.9	-9.8	-4.5	-2.6	i	0.6	·

Next section:
nr	mol	PABP FP inh	UUG fidelity	CSC inhib	eIF4H FP inh	MT1-MMP act inh RFP	Rce1 inhib	MT1-MMP act inh	HIV Env fusion
61	CC(C)N(C(=O)[C@H]1C[C@H](CC(=O)NCCCN(C)C)C(=O)N2CCc3c([nH]c4cc(CCC(=O)N(C)C)ccc34)[C@]12C)C(C)C	·	-5.5	·	·	5.4	·	2.2	10.3
62	O=c1oc2ccccc2c2c1nnn2CCO	1.5	-12.2	-1.9	-1.6	-0.4	i	-3.0	3.0
63	COc1ccc(-c2nnn(CC(=O)N(CC(=O)NC3CCCC3)Cc3ccco3)n2)cc1OC	-6.6	·	2.0	-12.3	-2.8	i	-5.3	10.7
64	CC1CCCN(C2(O)C(=O)Nc3ccc([N+](=O)[O-])cc32)C1 (stereo not drawn)	-1.2	·	-2.3	-10.8	3.9	i	1.7	7.9
65	O=C(/C=C/c1ccco1)NC(=S)Nc1cccc(C(=O)O)c1	72.0*	-19.3	-9.1	86.3*	1.5	i	-4.4	6.4
66	COc1cccc(NC(=O)Nc2cccn(Cc3ccc(C)cc3)c2=O)c1	-2.4	·	13.5	-0.4	-43.8	+	-39.0	0.5
67	O=C(NC1CCCCC1)N(CCO)Cc1cc2cc3c(cc2[nH]c1=O)OCCO3	-1.7	-12.7	-25.6	-6.9	18.5	i	4.5	-18.7
68	CCCC(C(=O)NCCC(C)C)N(Cc1ccccc1)C(=O)c1snc(C(N)=O)c1N (stereo not drawn)	-1.2	-5.8	·	-2.0	-5.3	i	-3.0	28.5
69	O=C(Nc1ccc(NC(=O)c2cccs2)cc1)c1ccc2ccccc2c1	-0.6	-45.8	·	-7.5	1.7	i	2.3	-9.1
70	COc1ccc(NS(=O)(=O)c2ccc(-c3coc(C)n3)cc2)c(OC)c1	·	-7.0	-6.9	·	-9.3	i	3.8	-4.5

A portion of the library; rates above refer to the full screens.
